Source: PubChem BioAssay (several laboratories)
Mtb betalactam: beta-lactam sensitization of Mtb H37Rv; M. tuberculosis H37Rv growth with meropenem, percent inhibition; hits of this screen are not shown here; inhibition, % at 25 µM; 330,000 tested, 0.27% active; AID 434955;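 active = about 74% or more and at least 40 points above the plate without the antibiotic, then above 30% in a dose series; inconclusive = first-round hits that could not be retested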;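 also: growth measured after seven days incubation then overnight dye step; 0% = bacteria only wells and 100% = bacteria with antibiotic; twin plates without the antibiotic show which effects depend on it; some results filed as inactive read as strong as hits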
RecA intein inh: blocks M. tuberculosis RecA intein splicing; cell-free RecA intein splicing, fluorescence; inhibition, %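 (about 9 µM by stock and volumes)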; 290,000 tested, 0.75% active; in the data active = inhibition above about 30%; inconclusive = no clear call, values can overlap the other calls;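 also: 0% = vehicle wells and 100% = reference inhibitor control wells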
Target sequence (P9WHJ3 whole entry, looked up): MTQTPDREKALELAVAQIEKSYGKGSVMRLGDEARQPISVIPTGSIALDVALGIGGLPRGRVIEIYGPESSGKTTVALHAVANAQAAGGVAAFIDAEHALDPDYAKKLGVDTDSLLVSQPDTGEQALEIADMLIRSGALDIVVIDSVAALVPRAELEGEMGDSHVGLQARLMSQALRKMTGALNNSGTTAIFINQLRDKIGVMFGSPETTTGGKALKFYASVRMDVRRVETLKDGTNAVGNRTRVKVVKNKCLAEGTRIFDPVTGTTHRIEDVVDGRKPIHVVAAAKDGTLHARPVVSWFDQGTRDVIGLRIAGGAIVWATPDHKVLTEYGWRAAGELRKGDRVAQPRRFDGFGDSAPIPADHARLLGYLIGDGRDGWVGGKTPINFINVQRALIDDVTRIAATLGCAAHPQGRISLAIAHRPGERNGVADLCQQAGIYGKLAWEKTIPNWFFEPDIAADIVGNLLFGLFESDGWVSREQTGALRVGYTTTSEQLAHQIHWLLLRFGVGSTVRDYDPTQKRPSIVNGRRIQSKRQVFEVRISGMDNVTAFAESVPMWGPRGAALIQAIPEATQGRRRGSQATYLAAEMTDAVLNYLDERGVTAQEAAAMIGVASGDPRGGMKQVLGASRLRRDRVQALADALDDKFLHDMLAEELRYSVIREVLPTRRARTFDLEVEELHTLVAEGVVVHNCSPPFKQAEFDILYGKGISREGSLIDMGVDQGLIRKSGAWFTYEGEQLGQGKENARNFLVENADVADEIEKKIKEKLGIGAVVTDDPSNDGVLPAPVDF
Mtb H37Rv: M. tuberculosis H37Rv growth inhibitors, H37Rv strain (AID 1626). one-dose inhibition, % at 10 µM; IC50 in µM for titrated hits. M. tuberculosis H37Rv growth inhibition; higher % means a stronger effect. 220,000 tested, 0.95% active;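 active = confirmed in a dose series; inconclusive = inhibition above 80% but not taken into the dose series; inactive = below 80% or under 30% at every dose of the series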;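 also: bacteria incubated seven days before Alamar blue readout; 0% = bacteria only wells and 100% = bacteria with antibiotic wells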
YopH PTP inh: blocks Yersinia enterocolitica YopH tyrosine phosphatase; AID 898; inhibition, %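 (about 10 µM by stock and volumes)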; 140,000 tested, 0.16% active; fluorescence Ex485/Em525;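 active = inhibition of 50% or more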;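 also: controls were vehicle for no effect and minimum signal wells for full effect; inactives centre near -20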
Arbovirus anti: blocks arbovirus infection; arbovirus infection cell-based antiviral screen; inhibition, % at 10 µM; 200,000 tested, 0.37% active;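 active = inhibition from about 30%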;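 also: bluetongue infection of BSR cells; cell survival read as ATP light after 72 h; 0% = infected wells without compound and 100% = uninfected wells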
Arbovirus anti repeat: second read-out of Arbovirus anti, no call of its own (marks repeat the call); inhibition, %; measured here: 10K subset replicate screen; many hits read low in the repeat;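 first of two repeat runs on a subset; 0% = infected and 100% = uninfected wells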
Numbers without * were called inactive; u = inconclusive; x = not tested or not shown.

SMILES	Mtb betalactam	RecA intein inh	Mtb H37Rv	YopH PTP inh	Arbovirus anti	others
Cc1ccc(-c2csc3nnc(SCC(=O)NCc4ccco4)n23)cc1	18.4	2.3	4.7%	-13.5	2.8
O=C(Nc1nc2ccccc2[nH]1)c1ccccc1F	x	0.9	1.5%	-44.2	-16.7
CCN(CC)c1ccc(S(=O)(=O)N2CCOCC2)cc1NS(C)(=O)=O	-7.0	-1.6	-3.5%	x	0.5
O=C(NNC(=S)Nc1ccc(Br)cc1Cl)c1ccco1	7.5	3.4	x	-38.4	-5.7
O=C(Cc1ccc(Br)cc1)Nc1ccc(S(=O)(=O)NCC2CCCO2)cc1 (configuration not stated)	-1.8	3.0	-10.9%	x	-0.8
CCc1ccc(Cn2nnc(C(=O)Nc3cccc(C)c3)c2N)cc1	-12.3	-0.5	-10.9%	-21.1	-10.0	Arbovirus anti repeat=4.0
CCC(Oc1ccc2c(=O)c(-c3ccccc3OC)coc2c1)C(=O)OCc1ccccc1 (configuration not stated)	97.8	1.3	u	-22.8	-1.7
COC(=O)c1sccc1-n1cccc1C(=O)NCc1ccccc1	-2.4	8.1	-3.3%	-51.7	4.5
O=c1c2c3c(sc2nc2sc(CN4CCOCC4)cn12)CCCC3	x	-2.1	-5.9%	2.8	0.1
COc1ccc(/C=C2/C(=O)N(c3ccccc3)N=C2C)cc1	-4.9	69.2*	x	x	x
COc1ccc(CC(=O)N/N=C/C=C/c2cccc([N+](=O)[O-])c2)cc1OC	1.8	-3.3	1.5%	x	x
CCOC(=O)NC(c1ccccc1)C1CCCCC1=O (configuration not stated)	-1.2	0.4	2.5%	-33.1	3.7
CCOC(=O)C(C)n1cnc2c(nnn2-c2ccc(F)cc2)c1=O (configuration not stated)	-2.3	-0.5	x	x	x
Cc1cc(C(=O)Nn2cnc3ccccc3c2=O)ccc1[N+](=O)[O-]	3.5	3.6	-2.3%	x	-0.6
O=C(NC1CC1)C1=C[C@H](c2ccc(Br)cc2)C[C@H](OCc2ccc(CO)cc2)O1	3.6	5.5	-12.0%	x	x
O=C(Nc1ccc2c(c1)OCO2)N1CCCc2ccccc21	8.3	-1.9	-10.6%	x	x
Cc1nc2ncnn2c(C)c1CCC(=O)NCc1ccco1	8.2	0.0	-10.7%	-53.4	9.4
Brc1cnc2nc[nH]c2c1	0.9	-1.2	-8.0%	x	x
CC(=O)NC1C(=O)N(CCN2CCOCC2)c2ccc(Cl)cc21 (configuration not stated)	3.5	46.2*	x	x	x
C/C(=N\NC(=O)CCC(=O)Nc1ccc(C)c(C)c1)c1cccs1	-5.5	-0.8	0.8%	x	5.6
Nc1cccc(C2=Nc3cccc4cccc(c34)N2)c1	10.3	-3.9	10.8%	62.1*	-3.5
CCN(CC)c1nc(C)nc2c1cnn2CCc1ccccc1	19.8	-0.5	2.8%	-7.1	-10.6
Cc1cc(C)c(OCC(=O)OCC(=O)NCCC2=CCCCC2)c(C)c1	-5.8	4.2	x	x	x
NC(=O)NC(=O)COC(=O)c1ccc(OC(F)F)cc1	-1.7	-0.4	-5.9%	x	-2.6
COc1ccc2[nH]cc(C(O)CN3CCC(C(N)=O)CC3)c2c1 (configuration not stated)	-4.0	-0.2	2.8%	-35.8	3.5

Seven records picked at random from those above, as already listed:
SMILES	Mtb betalactam	RecA intein inh	Mtb H37Rv	YopH PTP inh	Arbovirus anti	others
O=C(Nc1nc2ccccc2[nH]1)c1ccccc1F	x	0.9	1.5%	-44.2	-16.7
CC(=O)NC1C(=O)N(CCN2CCOCC2)c2ccc(Cl)cc21 (configuration not stated)	3.5	46.2*	x	x	x
O=C(NNC(=S)Nc1ccc(Br)cc1Cl)c1ccco1	7.5	3.4	x	-38.4	-5.7
CCC(Oc1ccc2c(=O)c(-c3ccccc3OC)coc2c1)C(=O)OCc1ccccc1 (configuration not stated)	97.8	1.3	u	-22.8	-1.7
O=C(NC1CC1)C1=C[C@H](c2ccc(Br)cc2)C[C@H](OCc2ccc(CO)cc2)O1	3.6	5.5	-12.0%	x	x
COc1ccc(/C=C2/C(=O)N(c3ccccc3)N=C2C)cc1	-4.9	69.2*	x	x	x
C/C(=N\NC(=O)CCC(=O)Nc1ccc(C)c(C)c1)c1cccs1	-5.5	-0.8	0.8%	x	5.6

Back to the main list; the 3 compounds before the break are reprinted first.
SMILES	Mtb betalactam	RecA intein inh	Mtb H37Rv	YopH PTP inh	Arbovirus anti	others
Cc1cc(C)c(OCC(=O)OCC(=O)NCCC2=CCCCC2)c(C)c1	-5.8	4.2	x	x	x
NC(=O)NC(=O)COC(=O)c1ccc(OC(F)F)cc1	-1.7	-0.4	-5.9%	x	-2.6
COc1ccc2[nH]cc(C(O)CN3CCC(C(N)=O)CC3)c2c1 (configuration not stated)	-4.0	-0.2	2.8%	-35.8	3.5
Cc1cccc(NC(=O)C2C3C=CC(O3)C2C(=O)O)c1C (configuration not stated)	1.5	-3.7	x	x	x
CCOc1ccc(C(=O)NC(=S)NCCCN2CCOCC2)cc1	3.4	-2.9	x	x	x
CC1(C)CC(=O)C2=C(C1)OC(N)=C(C#N)C2c1cn(-c2ccccc2)nc1-c1ccccc1 (configuration not stated)	6.1	10.2	9.5%	-29.1	-15.8
CCc1nnc(NC(=O)CSc2nnc(Cc3cc(=O)[nH]c(=O)[nH]3)n2-c2cccc(OC)c2)s1	-17.8	0.3	2.4%	x	20.1
CCOC(=O)c1oc2c(CN3CCN(C)CC3)c(O)ccc2c(=O)c1-c1ccccc1OC	-11.6	-1.0	2.3%	-7.2	3.8	Arbovirus anti repeat=10.3
C/C(=N\NC(=O)c1cccc(Cl)c1)c1cccc(NC(=O)c2ccco2)c1	0.3	0.6	3.8%	-25.2	-6.8
CCOc1cc(/C=C/C(=O)c2ccc(OC)c(CN3CCOCC3)c2)cc(Br)c1O	92.0	1.3	x	x	x
COC(=O)c1ccc(C2CC(=O)Nc3cc(OC)c(OC)c(OC)c32)cc1 (configuration not stated)	-1.9	2.2	-6.5%	-37.4	-1.6
Clc1cc(NCc2ccccc2)ncn1	-3.2	-1.0	x	x	x
CN(C)CC(C)(C)CNC(=O)c1cc(Br)cc(Br)c1O	9.5	-0.9	-2.8%	x	-5.6
CCOC(=O)N1CCN(C(=O)CSc2cc(C)nc3c(-c4ccccc4OC)c(C)nn23)CC1	10.3	5.3	-3.5%	-129.2	-4.5
CCc1nnc(NC(=O)C=C(C)C)s1	1.3	-2.5	-7.1%	32.9	-2.0
O=C(c1ccc(Cl)cc1)C1CCCN(Cc2cccc3cnccc23)C1 (configuration not stated)	-2.3	8.2	44.2%	x	3.2
CCC(=O)NC(=S)Nc1ccc(NC(=O)CC)cc1	7.7	-1.3	-0.3%	-19.7	-2.2
CN(C)S(=O)(=O)c1ccc(C(=O)Nc2cccc(C(=O)N3CCOCC3)c2)cc1	u	-1.5	x	x	x
O=C(NCc1ccc(F)cc1)c1cccc(S(=O)(=O)N2CCCC2)c1	0.1	3.8	-1.9%	3.6	6.5
COc1cc(/C=N/NC(=O)c2ccc(N)cc2)ccc1OC(=O)c1cccc(C)c1	12.5	1.7	x	x	x
O=CC1=C(N2CCOCC2)/C(=C/c2ccc(Cl)cc2)CC1	-3.0	6.5	-4.6%	x	7.8
O=C(CSc1ncn[nH]1)N1c2ccccc2Sc2ccccc21	-11.7	-0.7	x	x	x
Cc1ccc(CN2CCN(/N=C/c3cc(Br)cc(Br)c3O)CC2)c(C)c1	4.8	-1.0	4.7%	-28.1	12.8
CCCS(=O)(=O)N1CCN(CCN2C(=O)c3cccc4cccc(c34)C2=O)CC1	-10.7	1.1	0.6%	x	1.4
O=C(CNS(=O)(=O)c1cccs1)NCc1ccccc1	-4.3	2.6	3.9%	x	1.7
CCCS(=O)(=O)c1c(S(=O)(=O)CCC)c2c(N)cccn2c1C(=O)c1ccc(Br)cc1	-8.3	5.2	0.3%	-21.4	-13.4
COc1ccc(C(=O)N2CCCC2)cc1	-1.4	9.6	-5.6%	-45.9	-2.6
Cn1c(N2CCCCC2)nc2c1c(=O)n(Cc1cccc(Br)c1)c(=O)n2C	x	-0.8	-3.1%	-48.3	6.1

Next part.
SMILES	Mtb betalactam	RecA intein inh	Mtb H37Rv	YopH PTP inh	Arbovirus anti	others
O=C(Nc1ccc(S(=O)(=O)N2CCCC2)cc1)C1CCCCC1	0.0	0.1	x	x	x
COc1ccc(S(=O)(=O)N2CCN(c3ccccc3)CC2)cc1	-1.6	1.6	-6.0%	x	11.2
O=C(Nc1ccccc1Cl)NC1(C(=O)N2CCCC2)CCCCC1	-10.8	-0.9	-2.3%	-31.1	12.2
Cn1c(=O)cc(SCC(=O)NCCC2=CCCCC2)c2ccccc21	-8.6	0.4	-2.3%	-25.5	0.5
Cc1ccc(OC(=O)c2ccccc2C(=O)OCC(F)(F)C(F)F)cc1	90.1	3.4	18.8%	-26.3	9.3
O=C(/C=C/c1ccco1)OCc1nnc(-c2ccccc2)o1	94.3	3.7	2.8%	x	-1.8
N=C1C(c2ccccc2)=C(O)CN1c1ccccc1N1CCOCC1	-2.7	-0.8	-2.2%	-48.1	5.6
O=C(CCNS(=O)(=O)c1ccccc1)OCc1nnc(-c2ccccc2)o1	-4.9	0.6	x	x	x
Cc1ccc(CNC(=O)CN2C(=O)c3ccccc3S2(=O)=O)cc1	-1.4	0.4	x	x	x
COc1ccc(CN2CCN(C(=O)c3ccc(F)cc3)CC2)c(OC)c1	2.5	-4.5	x	x	x
COc1ccc(-c2c(-c3ccc(O)cc3O)n[nH]c2C(F)(F)F)cc1	1.8	3.5	-16.5%	x	x
COc1ccc(S(=O)(=O)Nc2nc3n(n2)C(c2ccc(Cl)cc2)CC(=O)N3)cc1 (configuration not stated)	-13.3	x	x	-17.4	3.5
O=C(CN1CCOCC1)N/N=C/c1ccc(-c2cccc(Cl)c2Cl)o1	1.1	3.9	4.7%	x	x
COc1cccc(CN2CCN(Cc3cccc4c3OCO4)CC2CCO)c1 (configuration not stated)	1.3	-6.4	1.1%	x	-2.9
COc1cc(C(=O)Nc2ccc3oc(-c4cccnc4)nc3c2)cc(OC)c1OC	-8.2	-1.5	-8.3%	x	3.8
Cc1cccc(SC2CCN(C(=O)C3CCC(=O)N(C4CC4)C3)CC2)c1 (configuration not stated)	6.0	-0.2	x	x	x
CSC1=N/C(=C\c2c(F)cccc2Cl)C(=O)S1	1.5	-1.8	-4.9%	-3.9	-3.2
O=C(COC(=O)C1CC(=O)N(Cc2ccccc2)C1)c1ccc(F)cc1 (configuration not stated)	-2.2	0.1	-7.2%	x	1.2
c1cnc2ccc3ncccc3c2c1	-6.2	-1.0	-8.3%	x	x
CC(=O)Nc1cccc(Oc2cc(C#N)c(C#N)cc2N2CCCCCC2)c1	2.2	20.6	13.8%	11.6	-20.9
CCCCn1cnc2c(=S)nc(N)[nH]c21	-7.2	-1.8	-9.3%	x	x
CC(C)[C@H](NC(=O)C1CCN(S(=O)(=O)c2ccccc2)CC1)C(=O)NCc1ccccc1	-3.5	5.2	x	x	x
COc1cccc(C(=O)Cn2c(=O)n(CC3CCCO3)c(=O)c3ccccc32)c1 (configuration not stated)	-11.4	3.6	-10.5%	-19.9	2.4
CC1CN(S(=O)(=O)c2cccc(C(=O)Nc3ccc(S(=O)(=O)Nc4ncccn4)cc3)c2)CC(C)O1 (configuration not stated)	x	2.1	-2.5%	x	0.6
C/C(=N\N(C)c1ccccc1)c1c(O)[nH]c(=O)[nH]c1=O	0.2	0.2	1.0%	x	x
O=S(=O)(N1CCCCC1)N1CCCN(S(=O)(=O)N2CCCCC2)CC1	-8.2	0.4	-5.3%	-10.6	21.2
COc1ccc(C(=O)/C=C/Nc2ccc(S(=O)(=O)Nc3nc(C)cc(C)n3)cc2)cc1OC	-0.7	0.5	2.0%	-30.0	-17.4

As a short view, some entries already given.
SMILES	Mtb betalactam	RecA intein inh	Mtb H37Rv	YopH PTP inh	Arbovirus anti	others
O=C(Nc1ccc(S(=O)(=O)N2CCCC2)cc1)C1CCCCC1	0.0	0.1	x	x	x
COc1ccc(S(=O)(=O)N2CCN(c3ccccc3)CC2)cc1	-1.6	1.6	-6.0%	x	11.2
O=C(Nc1ccccc1Cl)NC1(C(=O)N2CCCC2)CCCCC1	-10.8	-0.9	-2.3%	-31.1	12.2
Cn1c(=O)cc(SCC(=O)NCCC2=CCCCC2)c2ccccc21	-8.6	0.4	-2.3%	-25.5	0.5
Cc1ccc(OC(=O)c2ccccc2C(=O)OCC(F)(F)C(F)F)cc1	90.1	3.4	18.8%	-26.3	9.3
O=C(/C=C/c1ccco1)OCc1nnc(-c2ccccc2)o1	94.3	3.7	2.8%	x	-1.8

Not all compounds are listed (hit frequency here may not be typical).
